# VDR inh: Inhibitors of the vitamin D receptor (VDR): qHTS; 0.93% of 400,000 active; Vitamin D3 receptor (Homo sapiens), P11473; VDR-SRC2-3 peptide fluorescence polarization, 2 h; AID 504847, 2011; Potency, µM, inactives show max response, negative = inhibition, usual class: inhibitors; active means well fitted inhibition curve with a large enough effect; inconclusive means small, poorly fitted or top-dose-only effect, or another doubt; inactive means no such curve, though single readings can be large or run the other way; further: series mostly up to about 120 µM
# Target sequence (P11473 whole entry, looked up): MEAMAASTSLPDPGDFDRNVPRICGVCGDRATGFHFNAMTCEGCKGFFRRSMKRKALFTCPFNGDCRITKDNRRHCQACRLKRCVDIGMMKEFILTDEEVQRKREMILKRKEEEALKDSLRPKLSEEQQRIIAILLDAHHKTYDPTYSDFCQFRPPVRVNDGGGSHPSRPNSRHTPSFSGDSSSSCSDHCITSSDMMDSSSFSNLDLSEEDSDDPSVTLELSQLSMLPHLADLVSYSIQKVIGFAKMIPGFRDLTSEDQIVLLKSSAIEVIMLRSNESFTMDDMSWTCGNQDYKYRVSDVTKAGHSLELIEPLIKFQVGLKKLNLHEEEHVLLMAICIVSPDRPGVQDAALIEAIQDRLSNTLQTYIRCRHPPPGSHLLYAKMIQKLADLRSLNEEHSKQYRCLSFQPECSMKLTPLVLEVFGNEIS
#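 Reagent solutions, kept cold and dark, are dispensed first; compounds are then pinned in at 23 nl, plates briefly spun, and incubated 2 h at ambient temperature. Inhibition of VDR–SRC2-3 peptide binding is read by fluorescence polarization.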
# An asterisk follows results filed as active; u = inconclusive; & = joins results of further samples. On the % scale 0 is the no-effect control and ±100 the full control effect; potency means the concentration at half of the fitted maximal effect. The list is partial. The share of hits here may be higher or lower than overall.
Molecule	VDR inh
CC(C)CC1(C)NC(=O)N(CC(=O)Nc2ccccc2Br)C1=O (stereo unspecified)	-10.7%
Cc1ccc(Cl)c(NC(=O)COC(=O)c2ccccc2C(=O)c2ccc(Cl)c([N+](=O)[O-])c2)c1Cl	-6.0%
Cc1ccccc1S(=O)(=O)N1C[C@H]2CON(C)[C@H]2C[C@H]1c1cccc(N2CCOCC2)c1	-9.1%
O=C(CSc1nc(NS(=O)(=O)c2ccccc2)cc(=O)[nH]1)Nc1ccc(Cl)cc1	-11.2%
O=C(c1ccc(Cl)cc1)c1cnc(Nc2ccccc2)s1	-0.2%
CCOc1ccccc1-c1nc(-c2cc3ccc(C)cc3[nH]c2=O)no1	-5.9%
CCOc1cc(/C=N/NC(=O)CCn2nnc3ccccc32)ccc1O	-10.4%
COC(=O)c1cc2oc(C)cc2n1Cc1ccccc1Cl	1.7%
Cc1ccccc1-c1nc(CS(=O)(=O)CC(=O)NCc2cccc(Cl)c2)c(C)o1	15.8%
Cc1ccc(C(=O)NCC(=O)OCC(=O)Nc2ccc3[nH]c(=O)[nH]c3c2)cc1	20.2%
Fc1ccc(CSc2ccc3nnc(-c4cccs4)n3n2)cc1	-5.4%
S=c1nc(NCc2ccc3c(c2)OCO3)c2ccccc2[nH]1	-21.5%
CCOc1ccc(CN2CCN(Cc3[nH]c4ccccc4c3C)CC2CCO)cc1 (stereo unspecified)	0.1%
COc1ccc(CCNC(=O)c2ccc3c(c2)N(Cc2ccccc2F)C(=O)c2ccccc2S3=O)cc1OC (stereo unspecified)	-8.7%
CCCCCCC(O)(CCN1CCCCC1)c1ccccc1 (stereo unspecified)	u
Cc1ccc(-n2ncc3c2CC(C)(C)CC3NC(=O)CCc2cnn(C)c2)cc1 (stereo unspecified)	-13.6%
COc1ccc(OC)c(CCNC(=O)c2cc3c(=O)n(C)c4ccccc4c3n2C)c1	-11.6%
COc1ccc(NS(=O)(=O)c2cc(N)ccc2N2CCOCC2)cc1	14.1%
COc1ccc(S(=O)(=O)N[C@@H](Cc2ccccc2)C(=O)N2CC[C@@]3(O)CCCC[C@H]3C2)cc1	3.7%
CN(CC(=O)NCc1ccccc1Cl)S(=O)(=O)c1ccc2c(c1)n(C)c(=O)c(=O)n2C	-5.9%
COc1ccccc1CNC(=O)Cn1cccc1	1.3%
COc1ccc(NC(=O)c2sc3nc4n(c(=O)c3c2C)CCC4)c(OC)c1	-2.4%
COc1ccc(S(=O)(=O)N2CCOC2CNC(=O)C(=O)NCc2ccco2)cc1OC (stereo unspecified)	4.5%
COc1cccc(NC(=O)CN(C)C(=O)CNC(=O)c2sc3ccccc3c2Cl)c1	18.2%
CCOc1ccc(N2CC(C(=O)Nc3nnc(Cc4ccc(OC)c(OC)c4)s3)CC2=O)cc1 (stereo unspecified)	12.5%
COc1cc2oc(=O)c(CC(=O)N3CCCCC3)c(C)c2cc1Cl	7.7%
O=C(NCCN1CCOCC1)C1CCC(=O)N1C1CCCCC1 (stereo unspecified)	-6.4%
O=C(N/N=C/c1ccc(OCc2cnc(Cl)s2)cc1)c1ccncc1	4.3%
CCC(C)c1ccc(O)c(NC(=O)c2cncc(Br)c2)c1 (stereo unspecified)	-5.8%
CCC(=O)NC(c1ccco1)c1cc(Cl)c2cccnc2c1OC (stereo unspecified)	-12.2%
COc1ccc(NC(=O)c2cc(Br)ccc2Cl)c([N+](=O)[O-])c1	-12.2%
O=C(CCNS(=O)(=O)c1ccc2c(c1)CCN2C(=O)C1CC1)N1CCN(c2cccc(Cl)c2)CC1	13.1%
COc1ccc(CNC(=O)C2CCN(S(=O)(=O)c3cccc4nsnc34)CC2)cc1	9.5%
COC(=O)c1ccc(CN(C)S(=O)(=O)c2ccc(C)cc2)o1	1.7%
COc1ccccc1N1CCN(C(CNC(=O)C2CCCCC2)c2cccnc2)CC1 (stereo unspecified)	1.6%
CC#CC[N+](C)(C)CCCCCC	12.7%
N#Cc1ccc(-c2ccc(OCC3CNC(=O)O3)cc2)cc1 (stereo unspecified)	1.2%
COc1ccc2c(c1)c1c(c(=O)n(-c3ccccc3C)c(=O)n1CC(=O)N1CCCC1)n2C	21.3%
O=C(NNc1cccc(Cl)n1)Nc1ccc(Cl)cc1	-11.7%
CCC(C)c1ccc(NC(=O)C2=CC=CN3CCS(=O)(=O)N=C23)cc1 (stereo unspecified)	7.7%
COCCNC(=O)C1CC(c2ccc(C(F)(F)F)cc2)=NO1 (stereo unspecified)	-8.1%
CCOc1ccc2nc(SCC(=O)Nc3ncccn3)[nH]c2c1	-3.8%
O=C(Nc1ccc(Oc2ccccc2)cc1)c1cnc2n(c1=O)CCS2	-0.3%
CCCCN(C(=O)c1cccc(S(=O)(=O)N(CC)c2ccccc2)c1)c1c(N)n(CCCC)c(=O)[nH]c1=O	4.9%
O=C(c1cccc(S(=O)(=O)N2CCCC2)c1)c1cccc(S(=O)(=O)N2CCCC2)c1	-6.7%
COc1ccc(C(=O)N2CCN(Cc3cc(OC)c(O)c(OC)c3)CC2)cc1OC	-4.2%
CCOC(=O)c1c(NC(=O)c2ccc(S(=O)(=O)N3CCCC(C)C3)cc2)sc2c1CC(C)(C)NC2(C)C (stereo unspecified)	-5.6%
Cc1ccccc1OCC(=O)NNC(=O)C1CCN(c2ncnc3sc(C)c(C)c23)CC1	-7.5%
Cc1ccc(C2=NS(=O)(=O)N(C)C(C(=O)NCc3ccc(F)cc3)=C2)cc1	10.5%
COc1ccc(C(=O)c2oc3ccccc3c2NC(=O)c2cc(=O)c3ccc(C)cc3o2)cc1Cl	-7.4%
Cc1onc(-c2c(F)cccc2Cl)c1C(=O)OCC(=O)c1c[nH]c2ccccc12	-3.5%
CCOc1ccc(N=C2NC(=O)S/C2=C\c2ccc(Cl)cc2)cc1	9.0%
Cc1noc(C)c1C(=O)OCC(=O)Nc1ncc(C(F)(F)F)cc1Cl	-4.1%
COC(=O)N1CCc2c(sc(NC(=O)C3COc4ccccc4O3)c2C(N)=O)C1 (stereo unspecified)	89.1µM*
COc1ccc(CCNC(=O)Cn2cccc2C(=O)c2ccccc2C)cc1OC	-12.0%
C=C(C)c1cccc(C(C)(C)NC(=O)Nc2cc(C)ccc2OC)c1	-23.1%
Cc1nn(C)c(Cl)c1C(=O)NCC(=O)Nc1ccc(C(C)C)cc1	19.7%
O=C(N/N=C/c1ccco1)c1ccc(NC(=O)c2ccc(Cl)cc2)cc1	4.8%
COc1ccc(-c2nn(-c3ccccc3)cc2/C=C/C(=O)NCCCn2ccnc2)cc1OC	-7.9%
CCN(C(=O)c1cc([N+](=O)[O-])ccc1NCc1cccnc1)c1ccccc1	-4.1%

# Other structures follow.
Molecule	VDR inh
COC(=O)C1(C(F)(F)F)N=C2Sc3ccccc3N2C(N2CCOCC2)=N1 (stereo unspecified)	-5.9%
COC1CCCN(C(=O)c2cccc(OC3CCN(S(=O)(=O)N(C)C)CC3)c2)C1 (stereo unspecified)	-13.9%
COc1ccc(C2Nc3ccccc3C(=O)N2Cc2ccccc2)cc1COc1ccccc1F (stereo unspecified)	-9.4%
N=c1c2c3c(sc2ncn1CCN1CCOCC1)CCCC3	6.4%
COc1cccc(OC)c1C(=O)Nc1ccccc1Sc1ccccc1	-7.3%
Cn1nc(C(=O)NNC(=O)c2cccc(Cl)c2)ccc1=O	9.6%
Cc1ccccc1-c1nc(CS(=O)(=O)CC(=O)Nc2cccc(C(F)(F)F)c2)c(C)o1	1.5%
CC1(C)OC(=O)N(CCc2ccccc2)C1(C)O (stereo unspecified)	5.1%
CCOC(=O)C1=C(C)NC(C)=C(C(=O)OCC)C1c1ccccc1C=CC(=O)OC(C)(C)C	4.1%
CCCCCCSC1=C(C#N)C(=O)NC2(CCCCC2)S1	u
COc1ccc(C(=O)N(c2ccccc2)C2C=CS(=O)(=O)C2)cc1 (stereo unspecified)	5.9%
Cc1cnc(NC(=O)C2(c3ccccc3)CC2)s1	-3.3%
CCCCNc1oc(-c2ccc(COc3ccc(OC)cc3)o2)nc1C#N	7.1%
Cc1ccc(NC(=S)c2nc3ccccc3s2)cc1	4.3%
CCOc1ccccc1NC(=O)c1cc2c(=O)[nH]c3ccccc3c2s1	-11.2%
CCN(C(=O)CN1C(=O)COc2ccc(S(=O)(=O)N3CCOCC3)cc21)c1cccc(C)c1	8.7%
Cc1ccc(CCP(=O)(O)CN2CCOCC2)cn1	-5.3%
Cc1ccc(C(C(=O)NCc2ccco2)N(C(=O)Cc2cccs2)c2cccnc2)cc1 (stereo unspecified)	-2.2%
COc1ccccc1NS(=O)(=O)c1cccc(C(=O)N2CCCCCC2)c1	0.2%
CCOc1ccc(-c2ccc(SCC)nn2)cc1	-14.4%
CC(=O)c1ccc(NC(=O)C2CCCN(S(=O)(=O)c3ccc(Br)s3)C2)cc1 (stereo unspecified)	-7.5%
O=S(=O)(c1ccccc1)N1CCN(Cc2ccccc2)c2ccccc21	2.3%
CCOc1ccc(NC(=O)C(=O)N/N=C/c2cccnc2)cc1	-1.0%
Cn1c(=O)c(C(=O)NCCO)c(O)c2ccccc21	13.3%
NC(=NCCc1ccccc1)NS(=O)(=O)c1cccs1	-17.9%
Cc1ccc(-n2c(=O)c3c4c(sc3n(Cc3ccccc3F)c2=O)CCC4)cc1C	-5.1%
CCN(C(=O)CSc1nc2ccccc2n1Cc1ccc(C(=O)OC)cc1)c1ccccc1	-1.4%
CCCn1c2ccccc2c2cnn(CC(=O)NCCCN3CCCCC3)c(=O)c21	4.9%&11.1%
COCCn1c(=O)[nH]c2cc(C(=O)Nc3cccc(C(C)=O)c3)ccc2c1=O	-23.3%&-3.6%
COc1ccc(OC(C)C(=O)NCC2CCCO2)cc1 (stereo unspecified)	-1.5%
Cc1ccc2ncc(C(=O)NCc3ccccc3Cl)c(=O)n2c1	-6.5%
COc1ccc(C(=O)Nc2sc(C)c(-c3ccccc3)c2C#N)cc1OC	3.6%
CCOC(=O)C1(CC2CC2)CCN(Cc2ccc3cccc(F)c3n2)CC1	-4.4%
CCOC(=O)Cc1nn(Cc2nc(-c3ccc(C#N)cc3)cs2)c(=O)c2ccccc12	-2.6%
C#CCOCCOCCOCCNc1nc(N2CCN(C(=O)[C@H]([C@@H](C)O)n3cc(CCCCN)nn3)CC2)nc(N2CCN(C(=O)[C@H](C)n3cc(CCC(=O)O)nn3)CC2)n1	8.0%
COc1ccc(NS(=O)(=O)c2cccc(NC(=O)NC3CCCCC3)c2)cc1	u
COCC(=O)N1CCc2ccc(NC(=O)c3ccc(C(F)(F)F)cc3)cc2C1	0.7%
CCc1ccc(C(=O)CSC2=C(C#N)C(c3ccco3)C(C(C)=O)=C(C)N2)cc1 (stereo unspecified)	-20.5%
CCn1c(O)c(C=NCc2cccs2)c(=O)n(CC)c1=S	4.2%
O=C(NCc1n[nH]c(=S)n1-c1cccc(Cl)c1)c1ccc(S(=O)(=O)N2CCCC2)cc1	-7.1%

# Exported with values ahead of the structure: 6 of the compounds above
VDR inh	SMILES
-23.3%&-3.6%	COCCn1c(=O)[nH]c2cc(C(=O)Nc3cccc(C(C)=O)c3)ccc2c1=O
-1.5%	COc1ccc(OC(C)C(=O)NCC2CCCO2)cc1 (stereo unspecified)
-6.5%	Cc1ccc2ncc(C(=O)NCc3ccccc3Cl)c(=O)n2c1
3.6%	COc1ccc(C(=O)Nc2sc(C)c(-c3ccccc3)c2C#N)cc1OC
-4.4%	CCOC(=O)C1(CC2CC2)CCN(Cc2ccc3cccc(F)c3n2)CC1
-2.6%	CCOC(=O)Cc1nn(Cc2nc(-c3ccc(C#N)cc3)cs2)c(=O)c2ccccc12

# (more compounds)
Molecule	VDR inh
Cc1cc(C)cc(-n2c(SCC(=O)NCc3ccc(F)cc3)nc3c([nH]c4ccccc43)c2=O)c1	7.5%
CCN(CC)c1ccc(N=Nc2nn(C)c(C)c2[N+](=O)[O-])cc1	-5.5%
CCCCn1c(SCC(=O)c2ccc(OC)c(OC)c2)nc2cc(S(N)(=O)=O)ccc21	-5.9%
CN(C)CCSc1nnc2sc3ccccc3n12	7.9%
CCOC(=O)C1(Cc2cccc(OC)c2)CCN(C(C)COC)CC1 (stereo unspecified)	-2.2%
COc1ccccc1Nc1nc(Cl)nc(NC(C)(C)C)n1	2.0%
COc1cccc(-c2noc(C3CCCN(S(=O)(=O)c4cccc(Cl)c4C)C3)n2)c1 (stereo unspecified)	-10.3%
Cc1ccc(C)[n+](CC(=O)c2ccc(-c3ccccc3)cc2)c1	14.2%
NC(=O)c1oc2ccccc2c1NC(=O)c1ccc(F)cc1	0.1%
CCOC(=O)C1(CCCc2ccccc2)CCN(Cc2cnn(C)c2)CC1	5.2%
COc1ccc(NS(=O)(=O)c2cc(OC)ccc2OC)cc1	-8.9%
COc1ccc(NC(=O)CC2(CC(=O)N3CCOCC3)CCCC2)cc1Cl	-6.6%
O=C(NCc1cccs1)c1cccn2c(=O)c3sccc3nc12	19.6%
Cc1ccc(-c2cc(-c3ccccc3)c(C#N)c(N)n2)o1	u
CCCCCc1cc(=O)oc2c(C(CCN3CCCC3)c3ccc(N(C)C)cc3)c(OC)cc(OC)c12 (stereo unspecified)	-17.8%
Cc1ccc(-n2c(=O)c3c4c(sc3n(Cc3cccc(Cl)c3)c2=O)CCC4)cc1C	-13.6%
COc1cc(C(=O)NCCCOC(C)C)ccc1OC1CCN(C(C)=O)CC1	-17.7%
COc1ccc(S(=O)(=O)N2CCCCC2)cc1	11.4%
O=C(Oc1ccc2ccc(=O)oc2c1)N1CCOCC1	2.9%

# High-throughput results: PubChem, National Center for Advancing Translational Sciences (NCATS)
